miR-21 reporter – raises the signal of a miR-21 reporter; 340,000 tested, under 10 active; HeLa miR-21 FLuc reporter, luciferase, 48 h; Potency, µM (top dose mostly 38.3 µM), without a hit: top-dose reporter change, positive = more light; active = well fitted rising curve with a large enough effect; inconclusive = small, poorly fitted or top-dose-only effect; inactive = no such curve, though single readings can be large or run the other way;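 also: % of control where 0% means no effect; miR-21 action dims this reporter so a rising signal means less miR-21 action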
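Compounds were titrated across several concentrations (up to approximately 40 uM) and incubated 48 hours with HeLa miR-21-FLuc reporter cells (miR-21 target sequence downstream of FLuc, endogenous miR-21). Readout was firefly luciferase luminescence after lytic detection reagent.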
Rango-impB inh – inhibitors of Rango-importin beta complex formation; Rango CFP/YFP FRET sensor + importin beta, 45 min; Potency, µM (highest dose often 92.2 µM), for inactives: at the highest dose inhibition of complex formation; 0.031% of 340,000 active; active = rising FRET ratio curve, often small or poorly fitted; inconclusive = mostly compound fluorescence or quenching in the first reads; inactive = flat curves in all reads;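 also: potency is read from the fitted curve at half-maximal effect; 0% = DMSO wells and 100% = buffer wells lacking importin beta; nearly all actives have a fitted effect of over 15% in size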
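Inhibition scored from the CFP 486 nm/YFP 530 nm FRET ratio 45 min after adding 0.125 microM importin beta to 50 nM Rango biosensor preincubated 5 min with compound (room temperature, PBS with DTT, Tween-20, BSA). No-importin wells as positive control.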
GLA inh pH 4.5 – alpha-galactosidase A (human) inhibition, pH 4.5 | P06280 | purified enzyme, 4-MU-alpha-Gal fluorescence, pH 4.5 | activity change, negative = inhibition, % at 105 µM | 230,000 tested, under 10 active; inconclusive = small, poorly fitted or top-dose-only inhibition, or a rising curve; inactive = flat fitted curve, though single readings scatter; no compound was filed as active;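 also: 0% = full activity with enzyme and -100% = basal without enzyme; dose as in the result columns while the protocol names 77 µM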
Target sequence (P06280 whole entry, looked up): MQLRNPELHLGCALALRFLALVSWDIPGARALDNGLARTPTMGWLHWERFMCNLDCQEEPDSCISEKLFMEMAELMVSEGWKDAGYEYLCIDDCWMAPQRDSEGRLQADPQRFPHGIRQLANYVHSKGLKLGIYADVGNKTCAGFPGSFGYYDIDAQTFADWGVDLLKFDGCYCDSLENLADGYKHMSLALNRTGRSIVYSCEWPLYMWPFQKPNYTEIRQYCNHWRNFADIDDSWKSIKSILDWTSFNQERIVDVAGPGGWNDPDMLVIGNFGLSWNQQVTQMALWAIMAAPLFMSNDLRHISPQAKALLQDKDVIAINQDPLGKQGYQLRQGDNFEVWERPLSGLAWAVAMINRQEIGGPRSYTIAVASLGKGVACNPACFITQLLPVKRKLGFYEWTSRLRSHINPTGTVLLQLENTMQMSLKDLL
Rango release inh – inhibition of RanGTP-driven Rango-importin beta dissociation | Potency, µM (top dose mostly 46.1 µM), for the others: top-dose activity change, negative = inhibition | 0.071% of 340,000 active | Biochemical FRET Rango-importin beta, RanGTP-induced dissociation; active means falling FRET ratio curve, often poorly fitted, with flat reads before Ran was added; inconclusive means other falling curves, or compound fluorescence or quenching; inactive means flat or rising ratio curve;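 also: potency is read from the fitted curve at half-maximal effect; % of control where 0% means no effect; nearly all actives have a fitted effect of over 45% in size; -100% = wells without RanGTP and RCC1; the record marks most hits as doubtful in a second field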
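Compounds sat 5 min at room temperature with 0.1 uM Rango biosensor plus 0.25 uM importin beta, then FRET pre-read. RanGTP-RCC1 (0.6 uM Ran, 2mM GTP, 0.2 uM RCC1) added for 45 min, and the CFP/YFP post-read measured blocked complex dissociation.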
* hit, by the source's call; ? = inconclusive; . = not tested or not shown; & = joins results of further samples. Only part of the results is shown; count on the stated rates, not on these rows.

SMILES	miR-21 reporter	Rango-impB inh	GLA inh pH 4.5	Rango release inh
CCOC(=O)CN1C(=O)C(CC)Oc2ccccc21 (centres undefined)	-3%	0.3%	11	-14%
CC1(C)CC(=O)C2=C(C1)OC(N)=C(C#N)C2c1ccoc1 (centres undefined)	0%	-0.8%	-2	-5%
CC(=O)c1ccc(NC(=O)COC(=O)CCN2C(=O)c3cccc([N+](=O)[O-])c3C2=O)cc1	-2%	-2.9%	2	-4%
C=CCNc1cnn(-c2ccc(C)cc2)c(=O)c1Cl	-48%	-0.2%	-3	-12%
CCCN(CCO)Cc1ccc(Br)cc1	0%	-0.1%	-14	-13%
CCOC(=O)N1CCC(N2CCN(S(=O)(=O)c3ccc(OC)cc3)CC2)CC1	8%	-3.1%	-15	-15%
CC1(C)Cc2c(sc(NC(=O)Nc3ccccc3)c2C(N)=O)CO1	-33%	-2.6%	.	-1%
COc1ccc(NC(=O)C2=CC(c3ccco3)=NS(=O)(=O)N2C)cc1OC	-7%&-15%	-1.4%	.	-13%
Cc1ccc(Cl)cc1N1CCN(C(=O)Cc2c(C(=O)O)[nH]c3ccc(Cl)cc23)CC1	-3%	-1.0%	3	-10%
O=C(NCCCN1CCCC1=O)Nc1ccc(Br)cc1Cl	-30%	5.0%	.	9%
CCn1c(=S)[nH]c2sc3c(c2c1=O)CCCCC3	-2%	0.4%	10	-2%
COC(=O)c1cccc(NC(=O)NC(=O)c2ccc(Cl)cc2)c1	-23%	-1.1%	-1	11%
COC(=O)c1ccc(C2NCCc3cc(OC)c(OC)cc32)cc1 (centres undefined)	-5%	1.9%	.	-2%
Cc1cccc(C(C)C)c1NC(=O)COC(=O)CCN1C(=O)C2CC=CCC2C1=O (centres undefined)	-3%	-0.7%	.	-12%
O=C(Nc1cccc(S(=O)(=O)NC2=NCCC2)c1)C1CCCCC1	-6%	?	-9	24%
NC(=S)Nc1cccc(-c2n[nH]c(=S)o2)c1	-1%	4.7%	-4	1%
Cc1cccc(C)c1-n1c(C)cc(/C=C2\C(=O)NN(c3ccccc3)C2=O)c1C	-21%	4.4%	-14	-11%
C/C(=N\OCc1ccc(C#N)cc1)c1ccc(S(=O)(=O)N(C)C)cc1	-25%	-1.4%	.	6%
CC1(C2(O)CCCCC2)NCCc2ccccc21 (centres undefined)	.	-0.9%	.	9%
COc1cccc(NC(=O)CSc2nnc(-c3ccoc3C)n2C)c1	-4%	-2.3%	.	14%
Cc1ccc(NC(=O)OCc2ccccc2S(C)=O)cc1 (centres undefined)	-23%	0.0%	8	-1%
CCN(CC)CCCOc1ccc(C)cc1Br	-2%	-0.8%	-4	5%
CC(C)C[C@H](NC(=O)N1CC(=O)Nc2ccccc21)C(=O)N[C@H](Cc1c[nH]c2ccccc12)C(=O)O	1%	-1.3%	.	2%
N#CCSCC(=O)Nc1ccc(F)cc1	-5%	0.3%	-1	-22%
S=C(NCCC1=CCCCC1)Nc1ccccc1	-17%	2.2%	4	1%

(listing goes on)
SMILES	miR-21 reporter	Rango-impB inh	GLA inh pH 4.5	Rango release inh
COCCNC(=O)c1ccc(CN2CCOCC2)cc1	-6%	-0.1%	3	18%
O=c1[nH]c(CSc2nc3ccccc3s2)nc2ccccc12	-42%	-5.3%	11	13%
Cc1cc(C)n2nc(C(=O)OCC(=O)N(C)CC(=O)Nc3ccc(F)cc3)nc2n1	.	4.3%	.	-2%
CC1(C)C([N+](=O)[O-])C(c2ccccc2O)NC(c2ccccc2O)C1[N+](=O)[O-] (centres undefined)	7%	-3.1%	-12	-5%
COc1ccc(CCNC(=O)CSc2nnc(Cc3cccn3C)n2C)cc1OC	-3%	2.9%	-2	-17%
CCc1noc(C)c1C(=O)Nc1nc(-c2ccc(OC)c(OC)c2)cs1	.	-1.1%	.	-8%
COc1cc(C(=O)O/N=C2/C=C(C)C(=O)C=C2C)cc(OC)c1OC	2%	-1.0%	-8	3%
Cc1cc(NC(=O)c2cnn3cccnc23)nn1CC(=O)Nc1cccnc1	-7%	-0.5%	2	14%
Cc1cc2c(OCC(O)CNCc3ccco3)cccc2[nH]1 (centres undefined)	-1%	?	.	-20%
COc1ccc(OC)c(S(=O)(=O)N2CCN(c3ccccc3OC)CC2)c1	-2%	-0.2%	.	24%
N#C/C(=C/c1ccc(CNC(=O)C(=O)Nc2cc(Cl)cc(Cl)c2)o1)C(=O)NCc1cccnc1	-6%	1.9%	2	-8%
CN=C(C)/C(C(=O)OC)=C(/O)c1ccc(Cl)cc1Cl	4%	-0.6%	-1	23%
COc1cc(CO)ccc1Oc1nnnn1-c1ccc(C(N)=O)cc1	-6%	-0.3%	-7	-4%
COc1ccccc1-c1ccc(=O)n(CC(=O)NCc2ccc3c(c2)OCO3)n1	-11%	-0.6%	3	-3%
CCOC(=O)c1ccccc1NC(=O)c1c(N)n(C)c(=O)[nH]c1=O	.	0.3%	.	-1%
COc1ccc(CNS(=O)(=O)c2ccc(-n3cccn3)cc2)cc1	0%	-2.5%	.	0%
N#C/C(=C\C1=C(N2CCOCC2)C(=C/c2cccc([N+](=O)[O-])c2)/CC1)C(=O)Nc1ccccc1F	-1%	-0.2%	-10	20%
O=C(c1ccco1)N1CCN(CC(=O)N2CCCc3c2c(=O)oc2ccc(O)cc32)CC1	4%	-2.2%	-5	15%
CCc1cc2ccc(OC)cc2nc1SCC(=O)N1CCN(C(=O)c2ccco2)CC1	12%	-1.8%	-5	25%
O=C(NC(=S)N1CCCCCC1)c1ccccc1	-5%	-2.8%	.	16%
Cc1nn(-c2ccccc2)c2[nH]c(=O)c(CNc3ccc4c(c3)OCCO4)cc12	-6%	?	-9	?
COc1cccc(N2CC(=O)N(NC(=O)c3sc4nc(C)cc(C)c4c3N)CC2=O)c1	3%	?	2	7%
CC(C)Oc1ccc(C(CC(=O)O)NC(=O)C2CCCCC2)cc1 (centres undefined)	-8%	1.1%	-9	5%
O=C(N/N=C/c1ccc(O)c(O)c1)c1cccc(S(=O)(=O)N2CCCC2)c1	.	0.9%	.	11%
Cc1ccn(CC(=O)N2CCCC(C(=O)c3cccc4ccccc34)C2)n1 (centres undefined)	-14%	-1.6%	-17	15%

Next section:
SMILES	miR-21 reporter	Rango-impB inh	GLA inh pH 4.5	Rango release inh
CCOc1ccccc1NC(=O)c1ccc2c(c1)C(=O)N(CC1CCCO1)C2=O (centres undefined)	5%	1.8%	.	?
COc1ccc(N(C(C)C(=O)N/N=C/c2ccc(OC(C)C)cc2)S(C)(=O)=O)cc1 (centres undefined)	-5%	5.1%	1	6%
Cc1[nH]c2ccccc2c1C(=O)C(=O)N1CCOCC1	-2%	-0.7%	.	-6%
CCn1c(=O)c(C(=O)CN(C)CC(=O)Nc2cccc(F)c2)c(N)n(Cc2ccccc2)c1=O	.	-0.3%	.	-1%
CC12C(=O)N(c3cccc(OC(=O)c4ccco4)c3)C(=O)C1C1c3ccccc3C2c2ccccc21 (centres undefined)	16%	-1.9%	-11	1%
CC(Oc1ccc(Cl)cc1Cl)C(=O)NCCN1CCOCC1 (centres undefined)	-16%	-1.2%	4	1%
CC(=O)Nc1ccc(NC(=S)NC(=O)c2ccc(-c3ccccc3)cc2)cc1	.	-0.3%	.	-11%
COc1ccccc1NC(=S)N/N=C/c1ccc(O)cc1	-60%	0.0%	1	-13%
O=C(C1CC(=O)N(C2CCCC2)C1)N1CCN(c2cccc(C(F)(F)F)c2)CC1 (centres undefined)	.	-1.9%	.	14%
O=C(NC1CCCCC1)C1CC(=O)N(Cc2ccccc2)C1 (centres undefined)	2%	6.3%	.	-7%
N#Cc1ccc(Cl)cc1NC(=O)CNCc1cccs1	-3%	-1.6%	.	-1%
Cc1cc(CNC(=O)COc2c(F)c(F)cc(F)c2F)c2ccccc2n1	-1%	?	-10	-4%
CC(=O)N1CCc2ccc(C(=O)CN3CCN(c4cccc(C)c4C)CC3)cc21	-7%	.	-6	.
COCc1cc(C)nc(SCc2ccccc2)c1C#N	-9%	?	.	2%
Cn1c(SCC(=O)Nc2sc3c(c2C#N)CCC3)nnc1C1COc2ccccc2O1 (centres undefined)	-8%	0.2%	-1	-5%
CC1=NN(C(=O)c2ccc(Cn3nc(C)c([N+](=O)[O-])c3C)cc2)C(O)(C(F)(F)F)C1 (centres undefined)	-2%	-0.6%	-3	6%
CC1CCN(C(=O)c2ccccc2NS(=O)(=O)c2ccccc2)CC1	-7%	1.6%	.	1%
Cc1ccc(C(=O)N2CCN(c3ccc(N4CCOCC4)nn3)CC2)cc1	.	0.0%	.	?
Cc1ccc2[nH]c(=O)c(CN(CCCO)S(=O)(=O)c3c(C)ccc4nsnc34)cc2c1	-6%	-0.3%	0	-1%
COCCN(CCOC)Cc1c(O)ccc2c1O/C(=C\c1ccc(C)o1)C2=O	-3%	?	.	?
COc1cc(-c2ccccc2)nc2ccccc12	-5%	0.6%	1	-12%
O=C(N/N=C/c1cccc([N+](=O)[O-])c1)c1nc2ccccc2c(=O)[nH]1	-47%	-0.3%	-14	0%
Cc1nn(-c2nc3ccccc3s2)c(N)c1Sc1ccc(F)cc1	-40%	5.2%	3	1%
COc1ccc(Cc2nnc(SCC(=O)NC3CCCC3)o2)cc1	3%	0.5%	-2	2%
O=C(Cn1sc2ccccc2c1=O)N1CCN(C(=O)c2ccco2)CC1	-26%	-1.5%	.	-1%

Three entries from above, arranged by their value in GLA inh pH 4.5, largest number first.
SMILES	miR-21 reporter	Rango-impB inh	GLA inh pH 4.5	Rango release inh
Cc1ccc2[nH]c(=O)c(CN(CCCO)S(=O)(=O)c3c(C)ccc4nsnc34)cc2c1	-6%	-0.3%	0	-1%
Cn1c(SCC(=O)Nc2sc3c(c2C#N)CCC3)nnc1C1COc2ccccc2O1 (centres undefined)	-8%	0.2%	-1	-5%
CC12C(=O)N(c3cccc(OC(=O)c4ccco4)c3)C(=O)C1C1c3ccccc3C2c2ccccc21 (centres undefined)	16%	-1.9%	-11	1%

Taken from the entries so far, 5 compounds:
SMILES	miR-21 reporter	Rango-impB inh	GLA inh pH 4.5	Rango release inh
CCOC(=O)CN1C(=O)C(CC)Oc2ccccc21 (centres undefined)	-3%	0.3%	11	-14%
CC1(C)CC(=O)C2=C(C1)OC(N)=C(C#N)C2c1ccoc1 (centres undefined)	0%	-0.8%	-2	-5%
CC(=O)c1ccc(NC(=O)COC(=O)CCN2C(=O)c3cccc([N+](=O)[O-])c3C2=O)cc1	-2%	-2.9%	2	-4%
C=CCNc1cnn(-c2ccc(C)cc2)c(=O)c1Cl	-48%	-0.2%	-3	-12%
CCCN(CCO)Cc1ccc(Br)cc1	0%	-0.1%	-14	-13%

Later entries.
SMILES	miR-21 reporter	Rango-impB inh	GLA inh pH 4.5	Rango release inh
CC1CC(C)CN(C(=O)Nc2ccccc2F)C1 (centres undefined)	-2%	-0.3%	4	-18%
Cc1c(/C=N/NC(=O)c2cc(=O)[nH]c(=O)[nH]2)c2ccccn2c1C(=O)c1ccccc1	-2%	?	-8	?
O=C(COC(=O)C1CCC1)Nc1cccc(S(=O)(=O)N2CCOCC2)c1	.	0.2%	.	1%
Cc1cc(S(=O)(=O)N2CCCOC2CNC(=O)C(=O)NCc2ccco2)ccc1F (centres undefined)	13%	0.9%	6	-2%
COc1ccc(CCNC(=S)NNC(=O)c2c(Br)c(C)nn2C)cc1OC	-4%	0.2%	.	6%
COc1ccc(CNc2ncnc3sccc23)cc1OC	13%	?	.	-15%
O=C(NNC(=O)C1CC2CCC1C2)c1ccccc1 (centres undefined)	-17%	-0.4%	-19	5%
Nc1[nH]nc2nc(N3CCCC3)nc(-c3ccccc3)c12	-17%	-1.8%	3	1%
CC1CCC(NC(=O)C2COc3ccccc3O2)CC1 (centres undefined)	.	0.1%	.	2%
O=C(CCN1C(=O)C2C3C=CC(C3)C2C1=O)N1CCN(c2ccccn2)CC1 (centres undefined)	-9%	4.2%	1	-9%
C/C(=N/NC(=S)Nc1cccc(C)c1)c1cccc([N+](=O)[O-])c1	-27%	0.7%	-3	-9%
CC(=O)Nc1ccc(S(=O)(=O)N(C)c2ccc(OCCOc3ccccc3F)cc2)cc1	.	0.1%	.	-2%
Cc1ccc(S(=O)(=O)NCCC(=O)NCc2ccc(Cl)cc2)cc1C	.	-0.4%	.	28%
Cc1nc(NC(=O)c2ccccc2)sc1-c1csc(Nc2cccc(F)c2)n1	12%	.	-12	.
CCN1CCN(Cc2c(C(=O)N/N=C(\C)c3ccc(Cl)cc3)nnn2-c2nonc2N)CC1	5%	3.7%	.	3%

Screening data (PubChem BioAssay)
